# Rango-impB inh = Rango-importin beta binding inhibition; Potency, µM (series often up to 92.2 µM), for inactives: at the top dose inhibition of complex formation; Rango CFP/YFP FRET sensor + importin beta, 45 min; actives 0.031% (n = 340,000); AID 540263; active = rising FRET ratio curve, often small or poorly fitted; inconclusive = mostly compound fluorescence or quenching in the first reads; inactive = flat curves in all reads;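 note: potency is the fitted concentration of half-maximal effect; 0% = DMSO wells and 100% = buffer wells lacking importin beta; nearly all actives have a fitted effect of over 15% in size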
# Target sequence (Q14974 whole entry, looked up): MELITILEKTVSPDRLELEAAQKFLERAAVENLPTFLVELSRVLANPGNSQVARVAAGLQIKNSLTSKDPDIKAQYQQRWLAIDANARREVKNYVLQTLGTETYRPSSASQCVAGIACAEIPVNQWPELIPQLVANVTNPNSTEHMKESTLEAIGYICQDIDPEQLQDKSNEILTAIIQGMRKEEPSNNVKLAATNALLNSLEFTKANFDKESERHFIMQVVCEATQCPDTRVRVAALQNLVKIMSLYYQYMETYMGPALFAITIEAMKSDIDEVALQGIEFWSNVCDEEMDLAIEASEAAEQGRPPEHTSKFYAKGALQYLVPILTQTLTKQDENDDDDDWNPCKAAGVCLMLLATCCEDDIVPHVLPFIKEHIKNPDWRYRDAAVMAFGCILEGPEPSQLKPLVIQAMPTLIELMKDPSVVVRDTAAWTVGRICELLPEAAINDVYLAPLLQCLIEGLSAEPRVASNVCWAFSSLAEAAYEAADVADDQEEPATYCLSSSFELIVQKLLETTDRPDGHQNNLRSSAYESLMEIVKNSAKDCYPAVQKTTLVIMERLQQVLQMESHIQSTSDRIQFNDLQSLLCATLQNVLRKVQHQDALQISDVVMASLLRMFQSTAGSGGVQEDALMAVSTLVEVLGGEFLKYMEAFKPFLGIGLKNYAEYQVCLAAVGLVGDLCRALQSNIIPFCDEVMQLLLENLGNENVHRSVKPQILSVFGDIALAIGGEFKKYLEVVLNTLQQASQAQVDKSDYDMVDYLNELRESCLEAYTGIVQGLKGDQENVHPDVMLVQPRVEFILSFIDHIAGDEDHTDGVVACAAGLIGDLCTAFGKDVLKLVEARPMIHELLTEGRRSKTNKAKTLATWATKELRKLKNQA
#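 FRET biosensor Rango (snurportin 1 IBB between N-terminal EYFP and C-terminal Cerulean), 50 nM in PBS/1 mM DTT/0.02% Tween-20/0.1% BSA, preincubated 5 min RT with compound; 0.125 microM importin beta added, 45 min RT, CFP/YFP FRET ratio read.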
# Rango release inh = prevents RanGTP from dissociating the Rango-importin beta complex | Biochemical FRET Rango-importin beta, RanGTP-induced dissociation | Potency, µM (highest dose often 46.1 µM), without a hit: top-dose activity change, negative = inhibition | actives 0.071% (n = 340,000); active means falling FRET ratio curve, often poorly fitted, with flat reads before Ran was added; inconclusive means other falling curves, or compound fluorescence or quenching; inactive means flat or rising ratio curve;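 note: potency is the fitted concentration of half-maximal effect; % of control where 0% means no effect; nearly all actives have a fitted effect of over 45% in size; -100% = wells without RanGTP and RCC1; the record marks most hits as doubtful in a second field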
#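 Two FRET readings bracket the reaction: one 5 min after compound meets Rango–importin beta, another 45 min after RanGTP-RCC1 (0.6 uM Ran, 0.2 uM RCC1, 2 mM GTP) is added. Only the second defines inhibition.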
# miR-21 reporter = raises the signal of a miR-21 reporter | HeLa miR-21 FLuc reporter, luciferase, 48 h | Potency, µM (highest dose often 38.3 µM), without a hit: at the highest dose reporter change, positive = more light | 340,000 tested, under 10 active | AID 2288; active = well fitted rising curve with a large enough effect; inconclusive = small, poorly fitted or top-dose-only effect; inactive = no such curve, though single readings can be large or run the other way;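 note: % of control where 0% means no effect; miR-21 action dims this reporter so a rising signal means less miR-21 action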
#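 Compounds were titrated across several concentrations (up to approximately 40 uM) and incubated 48 hours with HeLa miR-21-FLuc reporter cells (miR-21 target sequence downstream of FLuc, endogenous miR-21). Readout was firefly luciferase luminescence after lytic detection reagent.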
# GLA inh pH 4.5 = inhibitors of human alpha-galactosidase A at pH 4.5. activity change, negative = inhibition, % at 105 µM. purified enzyme, 4-MU-alpha-Gal fluorescence, pH 4.5. 230,000 tested, under 10 active. AID 1467; inconclusive = small, poorly fitted or top-dose-only inhibition, or a rising curve; inactive = flat fitted curve, though single readings scatter; no compound was filed as active;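 note: 0% = full activity with enzyme and -100% = basal without enzyme; dose as in the result columns while the protocol names 77 µM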
# * = called active by the depositor; u = inconclusive; x = no result given; & = joins results of further samples; [ ] = remark or other dose. This is a subset; the hit share may differ from the screen's.
SMILES,Rango-impB inh,Rango release inh,miR-21 reporter,GLA inh pH 4.5
COc1ccccc1N1CCN(S(=O)(=O)c2ccc3c4c(cccc24)C(=O)N3)CC1,-1.8%,-8%,-23%,-2
CN1CCC(OC(=O)c2ccco2)CC1,0.4%,2%,1%,10
O=C(NC1CCCCC1)c1ccccc1NC(=S)NC(=O)C1CC1,1.8%,-1%,-8%,3
Cn1ncc2c(Nc3ccc(Cl)c(Cl)c3)ncnc21,-1.0%,5%,-49%,x
CC1CCCN(CCCN2C(=O)C3C(C(=O)Nc4ccc(Cl)cc4)C4C=CC3(O4)C2C(=O)NC2CCCCC2)C1 (centres undefined),-3.3%,1%,0%,x
COc1cccc(NS(=O)(=O)NC(=O)c2c[nH]c3ccccc23)c1,1.1%,-4%,-29%,x
N[C@@H](Cc1ccccc1)C(=O)N1CCOCC1,-0.3%,1%,x,x
C[C@H](CO)N1C[C@H](C)[C@@H](CN(C)Cc2ccccc2)Oc2c(NS(=O)(=O)c3ccc(F)cc3)cccc2C1=O,-2.4%,12%,x,x
CN(CC(=O)NCCN1CCOCC1)S(=O)(=O)c1ccc(F)cc1,1.7%,9%,0%,x
Clc1ccc(-c2n[nH]c3c2CCC3)cc1Cl,-4.7%,3%,-19%,-12
Cc1cc(/C=C2\SC(=S)N(C)C2=O)c(C)n1-c1ccc(O)cc1,u,u,u,-26
CCO/N=C(/C)c1c(O)cc(-c2ccccc2)n(-c2ccccc2)c1=O,-2.3%,u,-6%,7
Cc1ccccc1N(C(=O)c1snc(C(N)=O)c1N)C(C(=O)NCc1ccccc1)c1ccc(O)cc1 (centres undefined),u,-29%,22%,x
O=C(Nc1ccc(-c2nc3ccccc3o2)cc1)c1ccc(N2CCOCC2)c([N+](=O)[O-])c1,0.2%,-1%,-12%,-2
CCOC(=O)c1c(S(=O)(=O)NC2CCN(C(=O)OCC)CC2)c(C)n(C)c1C,0.6%,-7%,-12%,x
O=C(CSc1nc2ccccc2c(=O)[nH]1)Nc1ccccc1C(F)(F)F,0.1%,u,1%,x
COC(=O)c1sccc1NC(=O)/C=C/c1c(Cl)cccc1Cl,1.1%,-6%,-4%,-3
C=CCN1C(c2ccc(OCC)cc2)=CS/C1=C(\C#N)c1nnc2n1CCCCC2,-0.7%,-4%,17%,0
COc1ccc(-c2cc3nc4n(c(=O)c3s2)CCCCC4)cc1,1.0%,12%,-73%,-7
CC[C@@]1(C(=O)OC)N[C@H](CN(C)C(=O)c2ccc(C(C)(C)C)cc2)[C@@H]2C(=O)N(Cc3ccccc3)C(=O)[C@@H]21,0.7%,11%,x,x
CCCN(CCC)CCCNC(=O)c1cn(-c2ccc(OC)cc2)c(=O)c2ccccc12,-1.5%,-7%,-1%,x
CCC(=O)N1CCc2cc(S(=O)(=O)NC(Cc3ccccc3)C(=O)O)ccc21 (centres undefined),0.7%,2%,1%&-1%,x
COc1cccc(NC(=O)COC(=O)C2CC3CCCC(C2)C3=O)c1 (centres undefined),4.0%,6%,x,x
O=C(Cn1ccc2ccccc2c1=O)N1CCN(c2cccc(Cl)c2)CC1,-2.2%,5%,-2%,5

# A section from further up:
SMILES,Rango-impB inh,Rango release inh,miR-21 reporter,GLA inh pH 4.5
COc1ccc(-c2cc3nc4n(c(=O)c3s2)CCCCC4)cc1,1.0%,12%,-73%,-7
CC[C@@]1(C(=O)OC)N[C@H](CN(C)C(=O)c2ccc(C(C)(C)C)cc2)[C@@H]2C(=O)N(Cc3ccccc3)C(=O)[C@@H]21,0.7%,11%,x,x

# The listing continues:
SMILES,Rango-impB inh,Rango release inh,miR-21 reporter,GLA inh pH 4.5
CC(O)c1cc2c(cc1NC(=O)c1cnn3c1NC(c1ccco1)CC3C(F)(F)F)OCO2 (centres undefined),0.6%,1%,-7%,-3
Cc1ccnc2nc(C(=O)Nc3nnc(-c4ccc(Cl)cc4)o3)nn12,-1.6%,-12%,0%,-4
O=C(NCCc1nc2ccccc2[nH]1)c1ccc(Br)o1,10%,-10%,-5%,x
COc1ccc(CNC(=O)C(c2ccco2)N(C(=O)c2snc(C(N)=O)c2N)c2ccccc2OC)cc1 (centres undefined),-0.9%,4%,0%,x
c1ccc(CSc2nnnn2-c2ccc3c(c2)OCCO3)nc1,-8.1%,0%,-37%,-14
CC(C)OC(=O)/C(C#N)=C/c1cn(C)c2ccccc12,u,-7%,-2%,-7
CCOC(=O)CNC(=O)CSc1nnc(-c2cccc(OC)c2)n1CC,1.6%,-18%,0%,-8
COc1ccc(CC(=O)NCc2n[nH]c(=S)n2-c2ccccc2)cc1,0.4%,11%,5%,-6
Nc1nnn(-c2ccccc2)c1-c1ccccc1,-0.8%,12%,x,x
CCOC(=O)CN1C(=O)N[C@@H](c2ccccc2)[C@H](C(C)=O)[C@H]1C,0.5%,13%,x,7
CN(C)C(=O)/C(=C\c1ccc(-c2cccc([N+](=O)[O-])c2)o1)NC(=O)c1ccccc1,u,-2%,13%,-8
O=C(O)CCC(=O)N1CCCC1,0.2%,u,-2%,-6
Cc1nn(-c2ccc(N3CCCCC3)nn2)c(C)c1CCC(=O)Nc1cccc(F)c1,-0.1%,20%,-17%&-3%,x
O=C(O)c1ccc2c(c1)C(=O)N(NC(=O)c1ccc(O)cc1)C2=O,2.8%,-8%,-13%,-4
O=C1CCN(C(=O)Nc2ccccc2Cl)N1,-7.2%,15%,-2%,-3
CN(CCO)c1ncnc2c1sc1nc(N3CCOCC3)c3c(c12)CCC3,-1.1%,-9%,-9%,-6
Cc1ccc(-c2nnc(/C=C/c3ccccc3)o2)cc1,0.3%,-8%,-65%,-4
COCCNC(=O)CCC1CCN(Cc2cccc(-c3ccc(C)o3)c2)CC1,-2.0%,-3%,-8%,x
CCCOC(=O)c1ccc(NC(=O)C(=O)NCCN(CC)CC)cc1,3.3%,-1%,2%,7
COCCNC(=O)CNC(c1ccccc1)c1ccccc1,x,x,-2%,4
Cc1ccc(NC(=O)CSc2nnc([C@H](C)NC(=O)OC(C)(C)C)o2)c(C)c1,0.5%,-6%,9%,-20
CCN(CC(=O)Nc1cccc(C(C)=O)c1)S(=O)(=O)c1ccccc1,3.2%,2%,-1%,7
CCNC(=O)NC(=O)C(C)OC(=O)[C@H](C)NS(=O)(=O)c1c(C)c(C)cc(C)c1C (some centres undefined),7.3%,-4%,1%,4
O=C(NCC1CCCO1)c1ccc(OC2CCN(C(=O)C3CC3)CC2)cc1 (centres undefined),0.4%,17%,-5%,0
COc1ccc(CNC(=O)C(C)NCc2ccc(S(N)(=O)=O)cc2)cc1 (centres undefined),-0.4%,-8%,4%,x
COCCOC(=O)c1c(C)nc(SCC(=O)Nc2ccc(OC)cc2)c(C#N)c1-c1ccco1,-0.7%,16%,1%,-9
Nc1[nH]c(=S)nc2nc(-c3ccccc3)c(-c3ccccc3)nc12,-5.0%,-2%,-22%,-5
CNc1nc(N)nc(OC(C(F)(F)F)C(F)(F)F)n1,-0.5%,-12%,-1%,6[21.1 µM]
CN(C)c1nc(N)nc(CSc2ccccn2)n1,-0.7%,-23%,-28%,7
O=C(NCCc1ccc(Cl)cc1)Nc1ccc(F)cc1,-3.4%,20%,-20%,6
Cc1ccc(NC(=O)CSC(C)c2nc3ccccc3c(=O)[nH]2)cc1 (centres undefined),1.1%,12%,3%,x
CC1CC(C)CN(CCOc2cccc(Cl)c2Cl)C1 (centres undefined),0.8%,u,-3%,0
Cn1c(-c2ccccc2)c[n+]2c1CCCCC2,-2.9%,9%,0%,-11
CCN1CCN(CCNC(=O)c2ccc3c(c2)N(Cc2cccc(Cl)c2)C(=O)c2ccccc2S3=O)CC1 (centres undefined),-0.9%,-6%,-14%,x
NS(=O)(=O)c1cccc(NC(=O)CC23CC4CC(CC(Br)(C4)C2)C3)c1,1.1%,-22%,-1%,x
NC(=O)c1ncn([C@@H]2O[C@H](CNCc3ccccc3C#Cc3ccccc3)[C@@H](O)[C@H]2O)n1,-0.9%,-11%,x,x
CCCCCN(C(=O)COC(=O)c1ccc(C)cc1)c1c(N)n(CCCC)c(=O)[nH]c1=O,-2.5%,-8%,x,x
O=c1[nH]cnc2c1N=C(c1cccc([N+](=O)[O-])c1)CC(c1ccccc1)N2 (centres undefined),4.0%,2%,-8%,-6
COc1ccc(C)cc1NC(=O)COC(=O)C1COc2ccccc2O1 (centres undefined),0.4%,13%,x,x
Cc1ccccc1CN1CCN(C(=O)CC(C)C)CC1,5.4%,4%,-3%,x
Cc1ccc(S(=O)(=O)NCC(c2ccccc2)N2CCN(CCC#N)CC2)cc1 (centres undefined),2.9%,-2%,-9%,-15
O=S(=O)(Nc1nc2ccccc2nc1NCc1ccco1)c1ccc(Cl)cc1,3.0%,3%,8%,2
CCOC(=O)N1CCC2(O)CCCCC2C1c1ccc(F)cc1 (centres undefined),-0.7%,-1%,-4%,2
O=C(COC(=O)C1C2CC3OC(=O)C1C3C2)Nc1cccc(C(F)(F)F)c1 (centres undefined),0.2%,-1%,0%,x
COCCCNC(=S)N1CCN(C)CC1,-2.2%,7%,0%,5
CN1CCN(S(=O)(=O)c2ccccc2)CC1,0.9%,22%,0%,x
COc1ccc(S(=O)(=O)n2[nH]c(=O)c(CCO)c2C)c([N+](=O)[O-])c1,0.3%,5%,0%,5
Cc1ccc(C2N=C(N)Nc3nc(=O)c4ccccc4n32)cc1 (centres undefined),1.7%,4%,-3%,7
Cc1nc(C(=O)N2CCc3c([nH]c4ccccc34)C2c2ccccn2)cs1 (centres undefined),u,-19%,-23%,2
Cc1ccc(C(=O)Nc2c3c(nn2-c2ccccc2)CS(=O)(=O)C3)cc1C,1.3%,-2%,-8%,x
CC[C@@]1(C(=O)OC)N[C@H](CN(C)C(=O)c2ccccc2)[C@@H]2C(=O)N(C)C(=O)[C@@H]21,0.2%,-7%,x,x
CNc1nnc(-c2cc3ccccc3oc2=O)s1,u,u,-41%,-4
CCN1CCN(C(CNS(=O)(=O)c2ccc(Cl)cc2)c2cccnc2)CC1 (centres undefined),-1.2%,2%,3%,x
Cc1ccc(NC(=O)OCc2cc(-c3ccccc3)on2)cc1,0.5%,8%,-36%,4
O=C(Cc1ccc(Cl)cc1)Nc1ccc2oc(=O)ccc2c1,3.3%,-3%,0%,-10
CN1C[C@@H]2[C@@H]3C(=O)N(Cc4ccccc4)C(=O)[C@@H]3[C@](C)(C1=O)N2C(=O)c1ccc(Cl)cc1,4.9%,0%,x,x
O=C1CC(c2ccccc2)CC(O)=C1C=NCCN1CCOCC1 (centres undefined),-3.2%,-7%,-4%,5
O=C(O)CN1C(=O)SC(Nc2ccccc2)C1=O (centres undefined),-3.4%,0%,-13%,3
COc1ccc(-c2nnc(CSc3nc4ccccc4c(=O)n3CC(C)C)o2)cc1OC,3.7%,0%,-2%,-29

# By substructure: those above containing an aryl methoxy group.
SMILES,Rango-impB inh,Rango release inh,miR-21 reporter,GLA inh pH 4.5
COc1ccccc1N1CCN(S(=O)(=O)c2ccc3c4c(cccc24)C(=O)N3)CC1,-1.8%,-8%,-23%,-2
COc1cccc(NS(=O)(=O)NC(=O)c2c[nH]c3ccccc23)c1,1.1%,-4%,-29%,x
COc1ccc(-c2cc3nc4n(c(=O)c3s2)CCCCC4)cc1,1.0%,12%,-73%,-7
CCCN(CCC)CCCNC(=O)c1cn(-c2ccc(OC)cc2)c(=O)c2ccccc12,-1.5%,-7%,-1%,x
COc1cccc(NC(=O)COC(=O)C2CC3CCCC(C2)C3=O)c1 (centres undefined),4.0%,6%,x,x
COc1ccc(CNC(=O)C(c2ccco2)N(C(=O)c2snc(C(N)=O)c2N)c2ccccc2OC)cc1 (centres undefined),-0.9%,4%,0%,x
CCOC(=O)CNC(=O)CSc1nnc(-c2cccc(OC)c2)n1CC,1.6%,-18%,0%,-8
COc1ccc(CC(=O)NCc2n[nH]c(=S)n2-c2ccccc2)cc1,0.4%,11%,5%,-6
COc1ccc(CNC(=O)C(C)NCc2ccc(S(N)(=O)=O)cc2)cc1 (centres undefined),-0.4%,-8%,4%,x
COCCOC(=O)c1c(C)nc(SCC(=O)Nc2ccc(OC)cc2)c(C#N)c1-c1ccco1,-0.7%,16%,1%,-9
COc1ccc(C)cc1NC(=O)COC(=O)C1COc2ccccc2O1 (centres undefined),0.4%,13%,x,x
COc1ccc(S(=O)(=O)n2[nH]c(=O)c(CCO)c2C)c([N+](=O)[O-])c1,0.3%,5%,0%,5
COc1ccc(-c2nnc(CSc3nc4ccccc4c(=O)n3CC(C)C)o2)cc1OC,3.7%,0%,-2%,-29
